AID923: qHTS Assay for Allosteric/Competitive Inhibitors of Caspase-1: Spectroscopic Profiling in AFC Spectral Region. 75,000 tested, 1.1% active. Potency, µM (doses to about 57.5 µM), for the others: at the highest dose fluorescence increase, usual class: activators. compound fluorescence, AFC spectral region (405/520 nm); almost no hit is shown here. AID 923, 2007; active means well fitted activation curve with a large enough effect; inconclusive means small, poorly fitted or top-dose-only effect;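 further: potency means the concentration at half of the fitted maximal effect; 0% is about no effect; scaled to a free AFC standard on each plate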
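Baseline compound fluorescence (AFC region, 405 nm ex/520 nm em) taken from the intercept of kinetic reads with 50 nM caspase-1 and 5 uM Ac-WEHD-AFC; normalized to an on-plate AFC standard curve; compounds titrated up to 57 uM.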
A488 autofl: compound autofluorescence in A488 spectral region | compound autofluorescence, A488 spectral region, dye equivalency; hits give high values | 59,000 tested, 0.1% active | max dye equivalency, M; active = above 10 nM dye equivalent; inconclusive = 1 to 10 nM; inactive = 1 nM or less; about half of its hits are not listed in these tables;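 further: highest value over a series up to 38 µM; compound alone in buffer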
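Compounds pin-transferred into 100 mM Tris buffer, pH 8.0, incubated 15 min at room temperature, then imaged with 480 nm excitation/540 nm emission filters. Fluorescence converted to Alexa 488 dye-equivalent concentration via an on-plate six-point A488 standard curve.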
A647 fluor: compound autofluorescence in A647 spectral region | Compound fluorescence, A647 channel (570/671 nm), Tris buffer | max dye-equivalent concentration, M | 59,000 tested, under 10 active | AID 592; active means above 1 µM dye equivalent; inconclusive means 0.1 to 1 µM; inactive means 0.1 µM or less;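 further: values scaled relative to a standard on each plate; highest value over a series up to 38 µM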
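Buffer was dispensed, compounds and Alexa 647 standards were pin-transferred, and plates sat 15 min at room temperature. Intensity at 570/671 nm was then converted to dye-equivalent concentration using the plate's A647 standard curve.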
TSHR ag: agonists of human thyroid stimulating hormone receptor. HEK293-CNG-TSHR cells (CNG channel as cAMP sensor), membrane potential dye, cAMP. AID 926. Potency, µM (series often up to 57.1 µM), without a hit: at the top dose activation, hits mostly activators. 73,000 tested, 0.48% active; active = well fitted activation curve of enough size with the parental cells flat; inconclusive = any curve in the parental cells; inactive = parental cells flat and receptor cells flat or falling; further: potency means the concentration at half of the fitted maximal effect; % of control where 0% means no effect; weak receptor curves with flat parental cells got no call and are not listed
Target sequence (P16473 whole entry, looked up): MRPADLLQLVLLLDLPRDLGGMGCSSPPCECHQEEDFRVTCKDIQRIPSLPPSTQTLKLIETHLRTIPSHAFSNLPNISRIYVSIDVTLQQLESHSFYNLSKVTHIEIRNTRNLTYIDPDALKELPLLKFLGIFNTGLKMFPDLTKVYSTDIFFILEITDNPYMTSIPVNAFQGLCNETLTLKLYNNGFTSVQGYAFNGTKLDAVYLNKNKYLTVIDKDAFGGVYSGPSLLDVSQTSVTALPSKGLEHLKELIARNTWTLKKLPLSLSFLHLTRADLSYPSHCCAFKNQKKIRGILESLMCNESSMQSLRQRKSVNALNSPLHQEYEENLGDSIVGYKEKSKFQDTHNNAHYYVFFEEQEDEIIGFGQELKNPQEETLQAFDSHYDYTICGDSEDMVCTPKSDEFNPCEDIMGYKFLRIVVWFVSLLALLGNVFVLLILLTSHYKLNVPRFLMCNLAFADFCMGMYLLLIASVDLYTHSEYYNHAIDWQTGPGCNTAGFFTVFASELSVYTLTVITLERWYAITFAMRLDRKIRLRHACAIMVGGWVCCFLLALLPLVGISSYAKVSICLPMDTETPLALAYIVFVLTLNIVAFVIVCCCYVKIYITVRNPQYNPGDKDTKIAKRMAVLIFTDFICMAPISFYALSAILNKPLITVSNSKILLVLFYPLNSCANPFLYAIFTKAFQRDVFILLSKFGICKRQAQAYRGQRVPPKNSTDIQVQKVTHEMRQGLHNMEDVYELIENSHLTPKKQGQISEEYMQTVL
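cAMP rise detected as CNG-channel membrane depolarization by fluorescent dye (emission 590 nm), 30 min after compound, following 60 min dye loading containing 100 uM RO 20-1724 at room temperature. Cells: TSHR/CNG HEK 293, with parental CNG HEK 293 as control.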
Resorufin fluor: resorufin region autofluorescence; 59,000 tested, 0.04% active; Compound fluorescence, resorufin region 547/598 nm, buffer; hits give high values; AID 588; max dye-equivalent concentration, M; active = above 10 nM dye equivalent; inconclusive = 1 to 10 nM; inactive = 1 nM or less; a few of its hits are not listed in these tables; further: highest value over a series up to 38 µM
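Tris 100 mM pH 8.0; compound added, 15 min RT; CCD imager read, ex 547 nm/em 598 nm; signal normalized to resorufin standard curve (six concentrations per plate) as dye-equivalent concentration.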
* hit, by the source's call; i = inactive; ? = inconclusive; / = not tested or not shown; [ ] = another dose, or the depositor's remark.

SMILES	AID923	A488 autofl	A647 fluor	TSHR ag	Resorufin fluor
Nc1nc2n(n1)C(c1ccccc1)CC(c1ccc(F)cc1)N2 (centres undefined)	-1.6%	/	/	2%	/
COc1ccc(-c2nnc(SCC(=O)Nc3cc(C)on3)n2N)cc1OC	0.5%	i	4.4e-09	0%	i
Cc1cccc(NS(=O)(=O)c2ccc(C)c(C(=O)OCC(=O)Nc3cc(C)on3)c2)c1	-0.1%	i	8e-09	9%	i
O=C(COc1ccccc1)Nc1ccc2c(c1)nc1n2CCOC1	-0.4%	i	3.2e-08	-17%	i
O=C(O)c1ccc(C(=O)c2ccccc2C(=O)O)cc1C(=O)O	2.2%[11.5 µM]	i	3.2e-09	3%[11.4 µM]	i
O=c1c2c3nc4ccccc4nc3n(-c3ccc4c(c3)OCCO4)c2ncn1CC1CCCO1 (centres undefined)	3.9%	i	2.1e-08	-5%	i
CCOC(=O)c1cnc(SCC(=O)Nc2nc(C)c(C)s2)nc1N	1.1%	i	1e-09	?	i
Cc1ccc(S(=O)(=O)N2Cc3ccccc3CC2C(=O)Nc2cc(C)on2)cc1 (centres undefined)	-4.2%	i	1.6e-08	25µM*	i
Cc1ccc(CC(=O)Nc2cccc(C)n2)cc1	-0.8%	i	1.6e-09	29%	i
CCC(C)N1CC(C(=O)NC2CCCCC2)CC1=O (centres undefined)	0.1%	i	1.8e-09	?	i
CCOc1ccccc1N1Cc2cc(C)c(C)cc2C1	0.6%	/	/	28%	/
CCOC(=O)C1CCN(C(c2cccc(OC)c2)c2sc3nc(C)nn3c2O)CC1 (centres undefined)	1.1%	/	/	?	/
NS(=O)(=O)c1ccc(CCNC(=O)COC(=O)C2CCCN2C(=O)c2cccs2)cc1 (centres undefined)	-3.4%	i	5.6e-09	-1%	i
Cc1cc(NC(=O)CSc2c3c(nc4ccccc24)CCC3)no1	3.7%	/	/	8%	/
c1ccc(-c2cccc(N3CCC4(CCNCC4)CC3)c2)cc1	3.7%	i	1e-09	?	i
c1ccc2c(c1)OCC(c1nnc3sc(-c4ccc5c(c4)OCO5)nn13)O2 (centres undefined)	1.8%	i	2.1e-08	?	i
O=P(O)(OCc1ccccc1)OCc1ccccc1	-0.4%	/	/	?	/
Cc1nc(CNS(=O)(=O)c2ccc3c(c2)OCCO3)cs1	1.4%	i	1e-09	0%[11.4 µM]	i
Cn1c(=O)oc2cc(S(=O)(=O)NCCN3CCN(c4ccccc4F)CC3)ccc21	-1.4%	/	/	-1%	/
COc1ccc(Cl)cc1NC(=O)Cn1c(=O)n2nc(C)nc2c2ccccc21	-2.4%	/	/	-4%	/
O=C(COC(=O)CCCN1C(=O)c2ccccc2C1=O)Nc1ncc(Cl)cc1Cl	1.9%	i	4.5e-09	1%	i
Cn1ccnc1SCC(=O)c1ccc(Br)cc1	3.9%	i	6.7e-09	6%[11.4 µM]	i
CN1C(=O)CC(N2CCN(c3ccccn3)CC2)C1=O (centres undefined)	2.2%	/	/	-3%	/
O=C(NC1(C(F)(F)F)NC(=O)N(CC2CCCCC2)C1=O)c1ccco1 (centres undefined)	-3.9%	i	3.7e-08	0%[11.4 µM]	i
Cc1cc(Nc2ccc(C(=O)O)cc2)n2nc(C)nc2n1	6.0%	/	/	6%	/
SMILES	AID923	A488 autofl	A647 fluor	TSHR ag	Resorufin fluor
CC1CCC2C(C1)c1sc(=O)[nH]c1SC2(C)C (centres undefined)	1.0%	i	1.4e-08	/	i
CCCn1c(SCC(=O)Nc2cccc(C(=O)OC)c2)nnc1-c1cccnc1	-0.6%	i	5.9e-08	0%	i
O=C(Cc1ccc(-n2cccc2)cc1)N1CCN(c2ccccc2F)CC1	-0.8%	i	1.1e-08	13%	i
CCOC(=O)c1c(-c2cccs2)csc1NC(=O)COC(=O)c1c(C)noc1C	0.1%	i	8.2e-09	3%[11.4 µM]	i
CCCCC1(CC)C(=O)NC(=O)NC1=Nc1ccc(OC)cc1 (centres undefined)	1.6%	i	1e-09	-1%	i
COc1ccc(C(CC(=O)O)NC(=O)COc2ccccc2)cc1OC (centres undefined)	0.1%	i	6.6e-09	0%	i
COc1ccc(-n2c(=O)cc(N3CCCCCC3)[nH]c2=O)cc1	-0.4%	i	1e-09	1%	i
COc1cc(Cl)c(S(=O)(=O)N2CC(C)OC(C)C2)cc1Cl (centres undefined)	0.4%	i	1e-09	13%	i
CS(=O)(=O)N1CCC(C(=O)N2CCC(Cc3ccccc3)CC2)CC1	0.3%	i	2.8e-08	-18%	i
Cc1cc(C)cc(-n2nnc(C(=O)NCc3ccco3)c2N)c1	1.6%	i	1e-09	-5%	i
O=S(=O)(Nc1cccnc1)c1cc(Cl)ccc1Cl	-0.4%	/	/	2%	/
CCOC(=O)c1sc(=S)n(C)c1N	1.3%	i	7e-09	-10%	i
Cc1cc(=O)oc(C)c1C(=O)N1CCN(C(c2ccccc2)c2ccccc2)CC1	2.9%	i	6.2e-09	12%	i
COc1ccccc1N1CCN(Cc2nc(N)nc(Nc3ccc(C)cc3)n2)CC1	0.3%	i	1e-09	-3%	i
COc1ccc(C(=O)O)cc1Nc1cc(C)nc2ncnn12	-2.0%	/	/	2%	/
OCc1nc2ccccc2n1C/C=C/c1ccccc1	-1.7%	i	1.6e-08	4%	i
CC1(C)CC(=O)C(C(C2=C(O)CC(C)(C)CC2=O)c2cccc(O)c2)C(=O)C1 (centres undefined)	0.6%	/	/	3%	/
COC(=O)c1ccccc1NC(=O)c1ccc2c(c1)OCCO2	1.8%	i	2.3e-08	22%	i
Cc1ccc(S(=O)(=O)Nc2nc3ccccc3nc2NCc2ccco2)cc1C	9.3%	i	2.1e-08	?	i
O=C(CCCCn1c(=O)[nH]c2ccccc2c1=O)NCc1ccc2c(c1)OCO2	-0.2%	i	1e-09	-4%	i
CCCNC(=O)N1CCN(S(=O)(=O)c2ccc(C)c(C)c2)CC1	-1.6%	i	6.3e-09	4%	i
CCOc1ccc(S(=O)(=O)N(CC(=O)N2CCc3ccccc32)Cc2ccco2)cc1	-0.8%	i	4e-09	17%	i
CCCOc1ccc(C(=O)N2CCN(c3ccc(N)cc3Cl)CC2)cc1	3.3%	i	1.4e-08	-18%	i
Cc1ccc2nc(C(F)(F)F)c(C#N)c(N)c2c1	/	i	2.6e-08	/	i
O=C(c1ccc(Cl)c(Cl)c1)N(Cc1ccco1)c1ccc(O)cc1	-2.6%	i	4.8e-09	?	i
SMILES	AID923	A488 autofl	A647 fluor	TSHR ag	Resorufin fluor
N#CC1=C(SCC(=O)c2ccccc2)NC2=C(C(=O)CCC2)C1c1ccco1 (centres undefined)	/	i	1e-09	/	i
O=C(/C=N/O)NCc1ccncc1	-0.8%	i	3.4e-08	-2%	i
Cc1c(C)c2cc3c4c(oc3c(C)c2oc1=O)CCCC4	-1.4%	i	4e-09	?	i
COc1ccc2c(c1)c(CC(=O)O)c(C)n2Cc1ccc(F)cc1	-1.0%	i	1e-09	?	i
CCOC(=O)c1[nH]c(C)c(/C(O)=C2\C(=O)C(=O)N(CCCN(CC)CC)C2c2cccnc2)c1C (centres undefined)	-0.8%	i	1.4e-08	0%	i
CC1(C)CC(=O)C(C=NCCN2CCN(CCc3ccccc3)CC2)=C(O)C1	/	i	3.3e-08	/	i
Cc1ccc(CCNC(=O)C2CCCN2S(=O)(=O)c2ccc3c(c2)CCC(=O)N3)cc1 (centres undefined)	0.2%	/	/	4%	/
CCCOC(=O)c1[nH]c2c(c1C)C(=O)CC(c1cc(OC)c(OC)c(OC)c1)C2 (centres undefined)	0.0%	/	/	?	/
O=C(CCS(=O)(=O)c1cccc2nonc12)N1CC(=O)N(CCc2ccccc2)C(=O)C1	1.0%	i	3.3e-09	-9%	i
CCn1cc(C(=O)Nc2ccc3c(c2)OCCO3)c2cc(OC)c(OC)cc2c1=O	-1.4%	/	/	1%	/
Cc1cccc(-n2nc3c(c2NC(=O)c2ccco2)CSC3)c1C	6.2%	i	1e-09	6%	i
CCC(=O)N1CN(S(=O)(=O)c2ccc(C)cc2)CC1C (centres undefined)	-2.2%	i	2.8e-08	?	i
COc1ccc(C(=O)c2coc3ccc(O)c(CN(C)C)c23)cc1	3.2%	/	/	?	/
C[C@@H](C(=O)O)c1ccc(C[C@@H]2CCCC2=O)cc1	0.6%	i	2.5e-09	9%	i
Cc1ccc(Cn2c(NC(=O)c3ccco3)nc3ccccc32)cc1	0.5%	i	2.7e-08	?	i
Cc1nc2cc(F)ccc2n1C1CCN(S(=O)(=O)c2ccccc2)CC1	-1.1%	i	1.2e-08	-2%	i
N#Cc1ccccc1-c1cncnc1NCc1cccnc1	-1.0%	i	1e-09	1%	i
COc1ccc(S(=O)(=O)N(C)CC(=O)NCc2cccnc2)cc1C	1.0%	i	2.1e-08	-5%	i
O=C(CCCN=C1NS(=O)(=O)c2ccccc21)OCC(=O)N1CCc2ccccc21	-1.2%	i	1e-09	6%	i
Cn1cc(Cl)c(C(=O)Nc2cccc(Cl)c2Cl)n1	-1.0%	i	1.9e-08	-1%	i
COc1ccccc1-c1cc(C(F)(F)F)nc(N2CCOCC2)n1	0.1%	i	2.1e-08	?	i
CC[C@H]1C2=C3C(CC[C@H]4C(OCc5ccc(F)cc5C(F)(F)F)OC[C@](C)([C@@H]34)N(C(=O)OC(C)(C)C)C2)C2COC(=O)OCC21 (some centres undefined)	0.3%	/	/	5%	/
O=C(O)[C@@H](O)[C@@H](O)[C@@H](O[C@H]1O[C@@H](CO)[C@@H](O)[C@@H](O)[C@@H]1O)[C@@H](O)CO	0.6%[25.7 µM]	i	1e-09	-11%[25.6 µM]	i
CC(=O)CCc1c[nH]c2c(C(=O)O)cccc12	0.5%	/	/	-9%	/
CCOc1ccc(-c2c(C#N)c(N)nc3c2c(=O)n(C)c(=O)n3C)cc1OC	0.6%	i	1e-09	3%	i

Next section; the last 2 above are carried over.
SMILES	AID923	A488 autofl	A647 fluor	TSHR ag	Resorufin fluor
CC(=O)CCc1c[nH]c2c(C(=O)O)cccc12	0.5%	/	/	-9%	/
CCOc1ccc(-c2c(C#N)c(N)nc3c2c(=O)n(C)c(=O)n3C)cc1OC	0.6%	i	1e-09	3%	i
CCOC(=O)CCC(=O)Nc1ccc(S(=O)(=O)N2CCCC2)cc1	0.6%	i	1e-08	11%	i
COc1ccccc1NC(=O)NCCCN1CCN(c2cccc(Cl)c2)CC1	-0.4%	/	/	-1%	/
O=C1CCc2cc(S(=O)(=O)N3CCC(C(=O)NC4CCCCCCC4)CC3)ccc2N1	0.8%	/	/	-2%	/
O=C(CCCCn1c(=O)[nH]c2ccccc2c1=O)N1CCN(c2cccc(C(F)(F)F)c2)CC1	0.4%	i	1e-09	5%	i
Cc1nc2sc3c(c2c(=O)[nH]1)CCC3	0.1%	/	/	-3%	/
Cn1c2ccccc2c2ncn(CCCN3CCOCC3)c(=O)c21	0.4%	i	1e-09	8%[11.4 µM]	i
CCSC1=NC(=O)/C(=C2/C=Cc3ccccc3N2CC)S1	0.8%	i	7.5e-09	-46%[inhibitor]	i
CC(C)c1ccc(NC(=O)C(c2ccc3c(c2)OCO3)N2CCN(C(=O)c3ccco3)CC2)cc1 (centres undefined)	0.1%	i	2.7e-08	22%	i

One compound at a time, from the list above. Values in the order: AID923	A488 autofl	A647 fluor	TSHR ag	Resorufin fluor
Entry for Cn1c2ccccc2c2ncn(CCCN3CCOCC3)c(=O)c21 : 0.4%	i	1e-09	8%[11.4 µM]	i
Entry for CC(C)c1ccc(NC(=O)C(c2ccc3c(c2)OCO3)N2CCN(C(=O)c3ccco3)CC2)cc1 (centres undefined) : 0.1%	i	2.7e-08	22%	i
Entry for O=C(CCCCn1c(=O)[nH]c2ccccc2c1=O)N1CCN(c2cccc(C(F)(F)F)c2)CC1 : 0.4%	i	1e-09	5%	i
Entry for COc1ccccc1NC(=O)NCCCN1CCN(c2cccc(Cl)c2)CC1 : -0.4%	/	/	-1%	/
Entry for CCSC1=NC(=O)/C(=C2/C=Cc3ccccc3N2CC)S1 : 0.8%	i	7.5e-09	-46%[inhibitor]	i

An excerpt; rates above refer to the full screens.
